Assay outcomes (PubChem)
Beta apoptosis – blocks beta cell apoptosis | INS-1E cytokine-induced death, ATP luminescence, 48 h; percent of positive-control rescue, neutral wells zero | protection from apoptosis, % (concentration not given with the values) | hit rate 0.8% among 300,000 | AID 435005;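 active = all replicates at 75% or more, or half of them and the mean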;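 also: 0% = cytokine-treated negative control wells and 100% = positive control rescue; higher means more ATP so stronger rescue from cytokine killing; wells of about 40 µL received 100 nL stock; the first replicate is given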
FGF22 binding – FGF22 (human) thermal shift binding; AID 651658; hit rate 1.5% among 340,000; Q9HCT0; calls only at 9.99 µM; recombinant FGF22 thermal shift, SYPRO orange fluorescence; percent of sucrose octasulfate shift, DMSO zero;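 active = melting point raised past a set limit in the mean and every replicate; three in four hits are not shown here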
Target sequence (Q9HCT0 whole entry, looked up): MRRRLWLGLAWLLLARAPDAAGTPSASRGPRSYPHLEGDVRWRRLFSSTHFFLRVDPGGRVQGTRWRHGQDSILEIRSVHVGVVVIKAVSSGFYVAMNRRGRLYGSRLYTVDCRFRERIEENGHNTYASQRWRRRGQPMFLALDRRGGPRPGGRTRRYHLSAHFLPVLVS
T cruzi repl – blocks replication of Trypanosoma cruzi. T. cruzi beta-gal in NIH3T3, luminescence, 90 h. inhibition, % (no concentration beside the values). hit rate 1.4% among 300,000. AID 1885;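 active = mean inhibition across valid replicates above about 55%, limit read from the data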;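 also: signal also drops with host cell toxicity which is not excluded here; 0% = plate median of DMSO wells and 100% = zero luminescence signal; higher percent means less beta-gal luminescence so fewer parasites; stock transfer was 50 nL into about 50 µL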
UCH37 inh – blocks the human deubiquitinase UCH37; inhibition, % (test concentration not listed); hit rate 0.33% among 330,000; Q9Y5K5; purified proteasome/UCH37, Ub-AMC cleavage fluorescence;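 active = mean of two replicates above 20%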;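 also: 0% = compound-free wells with enzyme and 100% = wells lacking proteasome; stock transfer was 100 nL into about 20 µL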
Target sequence (Q9Y5K5 whole entry, looked up): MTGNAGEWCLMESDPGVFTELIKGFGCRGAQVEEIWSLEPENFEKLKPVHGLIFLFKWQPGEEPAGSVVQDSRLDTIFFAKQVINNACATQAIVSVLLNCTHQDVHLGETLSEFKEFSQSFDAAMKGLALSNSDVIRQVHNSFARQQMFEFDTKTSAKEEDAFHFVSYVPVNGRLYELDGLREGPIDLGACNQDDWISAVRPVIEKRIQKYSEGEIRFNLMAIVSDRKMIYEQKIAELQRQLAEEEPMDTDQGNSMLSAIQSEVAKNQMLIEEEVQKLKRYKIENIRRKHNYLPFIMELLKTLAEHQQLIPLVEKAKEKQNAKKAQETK
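Schedule: 30 min plus 25 min, room temperature / Material: human UCH37 within purified proteasomes / Technique: AMC fluorescence intensity at 355/460 nm / Buffer or medium: pH 7.4 Tris-HCl (50 mM) with ovalbumin, ATP-MgCl2, DTT / Controls: wells without proteasome as full block, compound-free enzyme plus substrate as uninhibited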
AF4-AF9 inh – MLL-AF4/AF9 protein interaction inhibition; AlphaScreen, biotin-AF4 peptide binding to FLAG-AF9; inhibition, % at 10 µM; hit rate 0.47% among 350,000; AID 651704;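 active = every replicate reaching a set inhibition limit, whatever the replicate mean, cut at about 25% in these data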;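 also: 0% = plate neutral control median and 100% = total signal loss; the record names both 10 and 1 µM as test concentration; the first replicate is given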
Target sequence (P42568 whole entry, looked up): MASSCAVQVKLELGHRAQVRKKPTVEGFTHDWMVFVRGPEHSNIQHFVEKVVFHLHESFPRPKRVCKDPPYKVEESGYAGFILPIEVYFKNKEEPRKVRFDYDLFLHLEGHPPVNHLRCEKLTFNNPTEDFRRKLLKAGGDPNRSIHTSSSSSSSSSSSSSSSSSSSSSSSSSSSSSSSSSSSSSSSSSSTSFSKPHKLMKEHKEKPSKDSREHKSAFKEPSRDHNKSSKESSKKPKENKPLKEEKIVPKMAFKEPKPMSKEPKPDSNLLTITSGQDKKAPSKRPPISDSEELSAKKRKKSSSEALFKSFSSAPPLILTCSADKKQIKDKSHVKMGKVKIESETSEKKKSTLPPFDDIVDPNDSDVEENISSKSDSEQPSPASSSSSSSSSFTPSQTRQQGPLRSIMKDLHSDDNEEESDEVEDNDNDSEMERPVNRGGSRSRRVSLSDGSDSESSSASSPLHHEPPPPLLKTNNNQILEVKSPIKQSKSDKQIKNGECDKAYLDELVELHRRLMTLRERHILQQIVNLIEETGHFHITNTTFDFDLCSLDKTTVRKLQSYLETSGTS
A1 inh – inhibitors of the anti-apoptotic protein A1, read as caspase activation. caspase activation, % (no concentration beside the values). MEF A1-2A-BIM cells, Caspase-Glo 3/7 luminescence, 3 h; percent of clofoctol response, vehicle zero. hit rate 0.066% among 330,000. AID 2462;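 active = over half of replicate activation scores above 10%, or exactly half above 10 with the replicate mean above 10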;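 also: wells of about 30 µL received 50 nL stock; many hits fall short of the cut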
Ecoli rRNA inh – inhibits bacterial ribosomal RNA function over humanized ribosomes. E. coli WT GFP vs humanized-ribosome RFP mutants, fluorescence, 24 h; hits give low values; DMSO median 0, no signal -100. GFP signal change (wild-type ribosome), % (test concentration not listed). hit rate 1.6% among 350,000;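 active = significant combined selectivity score with lowered wild-type GFP, culture density cut under 30%, mutant RFP and density less affected; inactive = any of these conditions unmet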; also: one replicate is shown; some compounds called inactive have numbers as strong as hits
E coli growth – blocks Escherichia coli growth. OD600, 23 h; hits give low values. OD600 absorbance (test concentration not listed). hit rate 0.21% among 330,000. AID 1053175;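 active = OD600 absorbance below the run mean of sample wells minus 3.6 SD, in any replicate, cut at about 0.56 in these data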;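 also: stock transfer was 300 nL into about 60 µL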
Ecoli rRNA inh OD600 – second read-out of Ecoli rRNA inh, no call of its own (marks repeat the call); OD600 change, %; measured here: OD600 growth;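 optical density of the mix in the first replicate; 0 = DMSO median and -100 = no signal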
Ecoli rRNA inh RFP – further read-out of Ecoli rRNA inh, marked with its call; RFP signal change, %; measured here: RFP humanized mutant strains;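 first replicate; 0 = DMSO median and -100 = no signal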
* marks the source's active call; other numbers are inactive results; i = inactive; . = no result given.

SMILES	Beta apoptosis	FGF22 binding	T cruzi repl	UCH37 inh	AF4-AF9 inh	A1 inh	Ecoli rRNA inh	Ecoli rRNA inh OD600	Ecoli rRNA inh RFP	E coli growth
Cc1cccc(-c2nnnn2-c2cccc(C)c2)c1	-6	i	13	1.7	-1.4	-0.4	-12	-17	-4.6	0.67
COc1cccc(CNC(=O)c2cc(=O)[nH]c3ccc(S(=O)(=O)N4CCOCC4)cc23)c1	0	i	.	-4.3	-5.5	-0.2	16	14	1.2	0.74
CNC(=S)N1CCc2sccc2C1C (centres undefined)	-1	i	-5	4.1	-0.1	0.2	5	5	-3.3	0.69
CCc1ccc2oc(=O)cc(CN3CCCCC3C)c2c1 (centres undefined)	.	.	7	-4.1	.	-0.2	.	.	.	0.69
O=C(c1ccncc1)N1CCN(S(=O)(=O)c2ccccc2F)CC1	5	i	.	2.4	-0.9	0.1	4	6	-2.3	0.68
COC(=O)CSc1nnc(-c2sc3cc(OC)ccc3c2Cl)n1C	-2	.	-12	3.0	.	-0.4	.	.	.	0.67
Cc1ccc(S(=O)(=O)N(Cc2cccc(F)c2)C(=O)N2CCN(C)CC2)cc1	-4	i	-2	2.6	-2.7	-0.1	10	18	-0.8	0.64
COc1ccc(C(=O)CC(=O)C(=O)Nc2ccccc2OC)cc1	-2	i	-11	6.7	3.0	-0.2	6	17	5.9	0.63
CCCCCCOc1ccc(N2C(=O)CC(NCc3ccc(S(N)(=O)=O)cc3)C2=O)cc1 (centres undefined)	-3	i	0	-0.7	-13	-1.7	-6	1	-4.0	0.67
Cc1nnc(-c2ccc(Cl)cc2)[nH]c1=O	-1	i	-9	0.8	-2.5	-0.3	8	1	-1.4	0.66

Results in T cruzi repl and Beta apoptosis (3 entries from above):
Structure,T cruzi repl,Beta apoptosis
Cc1cccc(-c2nnnn2-c2cccc(C)c2)c1,13,-6
Cc1nnc(-c2ccc(Cl)cc2)[nH]c1=O,-9,-1
CCc1ccc2oc(=O)cc(CN3CCCCC3C)c2c1 (centres undefined),7,.

Next entries.
SMILES	Beta apoptosis	FGF22 binding	T cruzi repl	UCH37 inh	AF4-AF9 inh	A1 inh	Ecoli rRNA inh	Ecoli rRNA inh OD600	Ecoli rRNA inh RFP	E coli growth
Fc1ccc(NC(=S)Nc2ccc(Cl)cc2Cl)cc1	-3	i	-52	0.3	-0.9	-0.2	-3	-8	-1.8	0.62
COc1ccccc1N1CCN(CC(O)COc2ccc(C)cc2C)CC1 (centres undefined)	2	i	25	1.5	1.5	0.3	-2	-11	0.4	0.65
O=C(Nc1cccnc1)C1CC(c2ccccc2O)=NO1 (centres undefined)	-9	.	-18	5.3	.	0.0	2	-1	1.1	0.63
O=C1NC(=O)/C(=C/c2cccc([N+](=O)[O-])c2)N1	2	i	-17	.	2.7	0.8	8	15	-3.2	.
NC(=O)c1ccc(NC(=O)COC(=O)c2cccc(Oc3ccccc3)c2)cc1	-8	i	-3	3.6	-2.1	0.2	2	4	0.7	0.7
COc1ccc(Nc2nc(Nc3ccc(OC)cc3OC)nc(N3CCN(C)CC3)n2)c(OC)c1	-7	.	23	0.4	.	-0.1	.	.	.	0.65
O=C(C1CC(c2ccc(F)cc2)=NO1)N1CCN(Cc2ccccc2)CC1 (centres undefined)	0	i	11	4.9	1.7	-0.2	0	-3	1.0	0.69
COc1ccc(Nc2nc(NCC3CCCO3)c3ccccc3n2)c(OC)c1 (centres undefined)	19	i	68*	-5.5	21	0.8	-54	-81	-14	0.65
COc1ccc(-c2nnn(CC(=O)N3CCN(c4ccc(F)cc4)CC3)n2)cc1	-2	i	-7	3.4	-1.2	0.5	11	6	-2.3	0.73
Cc1sc2nc(CN3CCCCC3)nc(N3CCN(C(=O)c4ccco4)CC3)c2c1C	5	i	-9	2.3	1.5	1.3	7	1	0.7	0.67
CC[C@@H](C)C(N)c1cn([C@@H](CCC(=O)O)C(=O)N2CCNCC2)nn1 (some centres undefined)	-7	i	-22	0.7	.	-0.5	16	11	0.6	.
COc1ccc(NC(=S)NCCc2c[nH]c3ccccc23)c(OC)c1	3	i	12	3.7	5.4	-0.3	-20	-25	11	0.7
N#CC1=C(S)N(c2ccccc2)C(c2cccs2)NC1=O (centres undefined)	-5	i	-9	5.6	3.5	0.0	-7	-1	2.6	0.68
O=C(CNC(=O)c1nn(Cc2ccccc2)c(=O)c2ccccc12)Nc1ccc(F)c(F)c1F	1	i	.	0.9	-0.4	-0.5	11	27	6.2	0.67
O=C(O)CC(NS(=O)(=O)Cc1ccccc1)c1cccc([N+](=O)[O-])c1 (centres undefined)	2	i	-7	2.6	-2.0	0.1	8	10	-0.9	0.65
Cn1c(SCc2ccccn2)nnc1-c1ccccc1	.	i	-14	3.9	-0.1	1.4	15	17	2.0	0.68
O=C(CSc1nc(CCC2CCCC2)nc2ccccc12)NCc1ccc2c(c1)OCO2	-1	i	22	1.4	-1.4	-0.3	3	5	-0.8	0.7
O=C(CCCN1C(=O)c2ccccc2C1=O)NCCc1ccc(OC(F)F)cc1	-8	i	-16	0.8	-9.6	1.2	0	1	1.4	0.71
NC(=O)CSc1nnc(CNc2ccc(F)cc2)n1CC1CCCO1 (centres undefined)	-5	.	-7	2.9	.	0.4	.	.	.	0.68
NC(=O)c1nnsc1-c1ccc(-c2snnc2C(N)=O)cc1	4	i	19	0.5	0.3	1.1	12	12	2.5	0.69

Complete entries as entered above. Order of screens: Beta apoptosis, FGF22 binding, T cruzi repl, UCH37 inh, AF4-AF9 inh, A1 inh, Ecoli rRNA inh, Ecoli rRNA inh OD600, Ecoli rRNA inh RFP, E coli growth
COc1ccc(NC(=S)NCCc2c[nH]c3ccccc23)c(OC)c1 is listed with 3, i, 12, 3.7, 5.4, -0.3, -20, -25, 11, 0.7
CC[C@@H](C)C(N)c1cn([C@@H](CCC(=O)O)C(=O)N2CCNCC2)nn1 (some centres undefined) is listed with -7, i, -22, 0.7, ., -0.5, 16, 11, 0.6, .
Cn1c(SCc2ccccn2)nnc1-c1ccccc1 is listed with ., i, -14, 3.9, -0.1, 1.4, 15, 17, 2.0, 0.68

(listing goes on)
SMILES	Beta apoptosis	FGF22 binding	T cruzi repl	UCH37 inh	AF4-AF9 inh	A1 inh	Ecoli rRNA inh	Ecoli rRNA inh OD600	Ecoli rRNA inh RFP	E coli growth
CSc1ccc(S(=O)(=O)Nc2ccc(S(=O)(=O)Nc3ccc(C)cc3)cc2)cc1	1	.	-9	5.2	.	0.6	.	.	.	0.72
Cc1ccc(-c2cc(C(=O)N3CCN(c4ccccc4O)CC3)c3ccccc3n2)o1	9	i	0	-245	4.7	-0.7	-14	-25	4.8	0.69
O=C(CNS(=O)(=O)c1ccc(Br)s1)N1CCN(C(=O)c2ccco2)CC1	-4	.	-11	2.0	.	0.9	.	.	.	0.64
CN(C)c1ccc(NC(=O)c2sc(SCC(=O)Nc3ccc(Br)cc3)nc2N)cc1	-4	.	8	3.8	.	-1.6	.	.	.	0.75
Cc1cccc(NCc2cc(Cl)cc(Cl)c2O)n1	-7	.	-1	3.3	.	-0.1	.	.	.	0.66
Cc1ccc(NC(=O)CC2SC(=NCC3CCCO3)NC2=O)cc1Cl (centres undefined)	-3	.	-3	3.2	.	-0.4	.	.	.	0.69
CCOC(=O)c1sc2nc3c(SCCC#N)cc(C(=O)c4cc(F)ccc4O)cn3c(=O)c2c1C	3	.	-2	-3.8	.	-0.5	.	.	.	0.72
CCCCOCCCNc1ncnc2c1[nH]c1ccccc12	114*	.	24	-22	.	0.1	.	.	.	0.64
CC(OC(=O)c1ccc(F)c(S(=O)(=O)N2CCOCC2)c1)C(=O)NCC1CCCCC1 (centres undefined)	2	i	.	3.6	1.1	-0.1	4	6	-1.9	0.65
COCCCNC(=O)Cn1c(=O)n(Cc2ccc(C(=O)NCCc3ccc(OC)c(OC)c3)cc2)c(=O)c2ccccc21	-4	i	-7	2.9	-4.8	-0.1	-4	2	-3.0	0.68
O=C(O)c1cc(Cl)c(Cl)cc1C(=O)N(Cc1ccccc1)Cc1ccccc1	-3	i	-10	1.6	0.2	-0.2	-9	-8	-0.7	0.64
COc1cc(OCc2ccccc2)c(C(=O)/C=C/c2ccc3c(c2)OCO3)c(OC)c1OC	-7	.	44	4.2	5.4	0.7	-4	-4	7.6	0.7
CCOC(=O)c1ccccc1NC(=O)CSc1nc2ccccc2c(=O)n1CCCN1CCOCC1	3	i	.	5.3	10	0.9	-56	-72	-14	0.74
CCOC(=O)N1CCN(C(=O)CS(=O)(=O)Cc2nc(-c3cccc(OC)c3)oc2C)CC1	-4	i	-3	4.7	-2.4	-0.5	2	0	0.2	0.64
COc1ccc(C(=O)OCCN=C2NS(=O)(=O)c3ccccc32)cc1OC	-2	.	-36	5.6	.	-0.5	0	-6	0.3	0.69
O=C(CNS(=O)(=O)c1ccc(Br)cc1)Nc1ccc2c(c1)OCCO2	.	i	-7	5.8	-0.8	.	3	2	2.7	0.74
Cc1ccc(C(=O)NCCc2ccc(S(N)(=O)=O)cc2)o1	-8	i	4	2.8	-1.9	-0.6	17	5	-8.7	0.65
COc1ccc(Nc2nc(N)nc(C(F)(F)F)n2)c(OC)c1	-9	.	1	1.0	.	0.9	.	.	.	0.66
CCOC(=O)c1c(C)n(C)c2ccc(OC(C)=O)cc12	-1	.	-22	1.7	.	-5.0	.	.	.	0.74
CCn1c(N)c(C(=O)COC(=O)CCc2nc3ccccc3c(=O)[nH]2)c(=O)[nH]c1=O	3	i	.	5.7	0.3	-0.6	6	13	-1.0	0.67
Cc1ccccc1N1CCN(S(=O)(=O)c2ccc3oc(=O)ccc3c2)CC1	12	.	4	6.1	.	1.5	.	.	.	0.7
O=C(NC12CC3CC(CC(C3)C1)C2)c1cccnc1Cl	-2	i	-10	4.0	-1.0	0.1	11	-5	2.1	0.66
CCCCCCSc1ccc([C@H]2N[C@@](Cc3ccccc3)(C(=O)OC)[C@H]3C(=O)N(CC)C(=O)[C@@H]23)cc1	43	i	-2	0.1	-1.5	-0.6	11	4	6.2	.
COc1cc(NS(=O)(=O)c2ccc(NC(=S)NC(=O)CC(C)C)cc2)nc(OC)n1	-9	.	-10	5.1	.	-0.1	.	.	.	0.7
CC(=O)Nc1ccc2c(c1)OCO2	1	i	-22	3.2	-5.5	0.8	4	5	0.3	0.75
CCC(=O)N(Cc1cc(=O)[nH]c2ccccc12)c1ccc(C)cc1	-1	i	2	2.3	0.9	0.1	0	3	-4.8	0.67
COC(=O)c1sccc1NC(=O)Nc1cc(C)ccc1OC	-1	i	2	-2.3	-1.5	-0.1	-9	-5	4.5	0.61
CC1CN(C(=O)CCC(=O)NCc2cccnc2)c2ccccc2O1 (centres undefined)	-3	i	-4	6.1	0.9	.	2	5	-1.2	0.66

Not all compounds are listed; rates above refer to the full screens.
